Screens from PubChem.
AmpC inh no det: Promiscuous and Specific Inhibitors of AmpC Beta-Lactamase (assay without detergent) | P00811 | AmpC nitrocefin hydrolysis, absorbance 480 nm, no detergent; potencies from a single point are estimates | Potency, µM (titrated, usually from 28.7 µM), for inactives: at the highest dose activity change, negative = inhibition | 71,000 tested, 1.8% active | AID 585, 2007; active = falling curve, for most hits resting on a single point; inconclusive = weak or doubtful change; inactive = flat or rising curve; also: % of control where 0% means no effect; about half of the hits show no inhibition at the top dose; a quarter of the inactives give rising signals
Target sequence (P00811 whole entry, looked up): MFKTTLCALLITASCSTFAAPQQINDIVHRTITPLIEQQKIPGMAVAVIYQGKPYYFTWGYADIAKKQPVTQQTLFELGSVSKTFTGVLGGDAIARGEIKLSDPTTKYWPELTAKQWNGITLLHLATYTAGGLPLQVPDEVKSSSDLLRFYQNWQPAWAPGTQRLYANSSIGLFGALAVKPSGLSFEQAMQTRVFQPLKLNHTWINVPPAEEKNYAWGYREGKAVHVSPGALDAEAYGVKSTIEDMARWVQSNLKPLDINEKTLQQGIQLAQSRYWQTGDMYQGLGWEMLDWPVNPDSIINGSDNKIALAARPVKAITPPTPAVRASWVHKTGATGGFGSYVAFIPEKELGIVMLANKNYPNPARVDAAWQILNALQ
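AmpC in 20 mM phosphate buffer pH 7.0 was preincubated 15 min at room temperature with compounds. Nitrocefin (800 uM stock) was then added and hydrolysis followed at 480 nm every 20 s for 4 min.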
Starred values were filed as active, the others as inactive; ? = inconclusive; [ ] = dose if it differs, or a comment. Potency is read from the fitted curve at half-maximal effect. The list is partial (hit frequency here may not be typical).

SMILES | AmpC inh no det
COc1ccc(-c2cc3nc(-c4ccccc4)cc(N4CCC5(CC4)OCCO5)n3n2)cc1 | 34%
CCCCCOC(=O)C1=C(C)NC(=O)NC1c1ccccc1OCC (stereo unspecified) | 23%
CC(C)NC(=O)NC(=O)COC(=O)Cc1ccsc1 | -6%
CCOC(=O)C1CCN(C(=O)CSc2ccccc2)CC1 | 10%
O=P(c1ccc2c(c1)OCCO2)(N1CCOCC1)N1CCOCC1 | -7%
ClCc1ccccc1 | 0%
Cc1c(C(=O)NCc2cccnc2)oc2ccccc12 | 15%
Cn1c(=O)c2c(nc(CN3CCC(Cc4ccccc4)CC3)n2CCN2CCOCC2)n(C)c1=O | 128%
CC(=O)N1CCN(c2ccc(NCc3cccs3)cc2)CC1 | 23%
COc1cccc(C2N(c3cccc(Cl)c3)C(=O)C3CCCN32)c1 (stereo unspecified) | 56%
O=C(O)CCCCCNS(=O)(=O)c1ccc(Cl)cc1 | -7%
CCCC(=O)c1cc(F)c(N2CCOCC2)cc1C | 32%
O=C(c1csnn1)N1CCC2(CC1)CN(c1ccccn1)C2 | 121%
CC1=C(C(N)=O)C(c2ccco2)C(C(N)=O)=C(C)N1 | -6%
N#Cc1nc(COc2ccc(Cl)cc2)oc1NCc1ccc2c(c1)OCO2 | -15%
CC(=O)NC(Cc1c[nH]c2ccccc12)C(=O)OCC(=O)Nc1cc(C)on1 (stereo unspecified) | 25%
COc1ccc(-c2nc3cnc(Nc4cccc(OC)c4)nc3n(C3CC3)c2=O)cc1 | 3%
CCn1c(COc2cccc3ccccc23)nnc1SCC(N)=O | 67%
CC(C)CN(C(=O)COC(=O)Cn1cnc2ccccc2c1=O)C1CCS(=O)(=O)C1 (stereo unspecified) | 20%
O=C(Nc1cccc2cccnc12)c1ccc(Br)o1 | -4%
Cc1cccc(NC(=O)CCN2CCOCC2)c1 | -3%
CC(=O)Nc1nc(CCC(C)C)cc2c1c(=O)oc1ccccc12 | 2%
[O-][n+]1onc2c1CCc1c-2nn(-c2ccccc2Cl)[n+]1[O-] | 5%
CCOc1nc(S(=O)(=O)c2ccc(C)cc2)c(Cl)s1 | 4%
CCOC(=O)Nc1sc2c(c1C#N)CCC(C)C2 (stereo unspecified) | 6%
COc1cc(S(=O)(=O)NC2CCCCC2)ccc1Cl | -20%
CC(=O)N1CCCc2cc(S(=O)(=O)NC(C(=O)NCc3ccc(C)cc3)C(C)C)ccc21 (stereo unspecified) | 35%
Cc1noc(C)c1COc1cccc(C(=O)OCCOc2ccc(F)cc2)c1 | 27%
CCN(CC)CCNC(=O)Cn1nc(-c2ccccc2)c2ccccc2c1=O | 20%
CCc1nnc(NC(=O)c2cnccn2)s1 | 5%
COc1cc2c(C(=O)NCCCN3CC(C)CC(C)C3)cn(CC(C)C)c(=O)c2cc1OC (stereo unspecified) | 33%
CCn1c(C)nc2c(=O)oc3ccccc3c21 | -12%
CCOc1ccccc1OCc1nn2c(COc3ccccc3)nnc2s1 | 29%
CCC[C@@H]1C[C@@]1(CCC)C(NC(=O)OCc1ccccc1)c1ccc(-c2ccccc2)cc1 (stereo partly specified) | -8%
Cc1cc(-c2[nH]nc3c2C(c2ccsc2)C(C#N)=C(N)O3)c(C)s1 (stereo unspecified) | ?
COC(=O)[C@@]1(Cc2ccc(OC)cc2)[C@H]2c3cc(C(=O)N(C)C)n(Cc4ccc(C)c(F)c4F)c3C[C@H]2CN1C(=O)c1ccccc1 | 112%
COc1ccc(C(=O)Oc2cccnc2)cc1OC | -4%
COc1ccc(CC(=O)NC2CCN(Cc3nnnn3C(C)(C)C)CC2)cc1OC | 19%
COc1ccc(C(=O)NCCc2c[nH]c3ccccc23)cc1S(=O)(=O)N1CCOCC1 | 28%
Cn1c(=O)[nH]c(=O)c2c1nc(N1CCOCC1)n2CCCSc1ncccn1 | 1%
COc1ccc(OC)c(NC(=O)C2CCCN2C(=O)C2CCC(C)CC2)c1 (stereo unspecified) | 50%
CC1CCCN(C(=O)CSc2nnc(-c3c[nH]c4ccccc34)o2)C1 (stereo unspecified) | 28%
C=CCn1c(NCc2ccc3c(c2)OCO3)nc2ccccc21 | -4%
CC1CC(=O)N(Cc2ccccc2)c2ccccc2N1C=O (stereo unspecified) | -2%
C=C1CC[C@H](O)C/C1=C/C=C1\CCC[C@]2(C)[C@H]1CC[C@H]2[C@@H](C)/C=C\[C@@H](C)C(C)C | 44%[12.8 µM]
CCOC(=O)N1CCN(Cc2nc3c(c(=O)n(C)c(=O)n3C)n2Cc2cccc3ccccc23)CC1 | 160%
CCOC(=O)c1c(N)sc2c1C1CCN2CC1 | 2%
CCC(Sc1nc(-c2ccccc2)c(C#N)c(=O)[nH]1)C(=O)Nc1cc(C)on1 (stereo unspecified) | -15%
CCOC(=O)C1C(=O)N(C)C2(C)CC1c1ccccc1O2 (stereo unspecified) | 2%
CC(C)COC(=O)NCC12C=CC(O1)C1C(=O)N(c3ccc(Cl)cc3)C(=O)C12 (stereo unspecified) | 46%
CSc1nsc(SC)c1NC(=O)OCC1CCCO1 (stereo unspecified) | 0%
CCOC(=O)Nc1ccc2c(c1)N(C(=O)N(C)C)c1ccccc1CC2 | 91%
CC1CCCO1 (stereo unspecified) | -9%
Cc1onc(-c2ccccc2)c1C(=O)N1CCC2(CC1)OCCO2 | 4%
Cc1cccc2cc(C(c3nnnn3C(C)(C)C)N3CCN(C(=O)c4ccco4)CC3)c(=O)[nH]c12 (stereo unspecified) | 110%
COc1cccc(-n2c(CNC(=O)OC(C)(C)C)n[nH]c2=S)c1 | 12%
CCCCOc1cccc(NC(=O)CSc2nccn2C)c1 | 19%
CC1(C)C(c2ccccc2)=NC(c2ccccc2)N1O (stereo unspecified) | 9%
O=C(OCc1cc2ccccc2[nH]c1=O)C1CCCO1 (stereo unspecified) | -7%
COC(=O)C1C2C=CC3(CN(CCc4ccccc4)C(=O)C13)O2 (stereo unspecified) | 8%

Next part.
SMILES | AmpC inh no det
O=C(Nc1ccc2ccccc2c1)N1CCN(c2ncccc2C(F)(F)F)CC1 | 19%
O=C(NCCN1CCCCC1)c1ccc(I)cc1 | 8%
C=C(C)Cn1c(Sc2nc3ccccc3[nH]2)nc2c1c(=O)[nH]c(=O)n2C | 6%
O=C(c1ccncc1)N1CCN(C(=O)c2cccc3ccccc23)CC1 | 15%
CCC(=O)Nc1ccc(NC(=O)CN2CCCC(C)C2)c(Cl)c1 (stereo unspecified) | 9%
CC1C2C(C)N(C)C(=O)N(C)C2N(C)C(=O)N1C (stereo unspecified) | -8%
CCN1CC=C2C(C1)C(c1ccc(Cl)s1)C(C#N)=C(N)C2(C#N)C#N (stereo unspecified) | 17%
COP(=O)(OC)O/C(=C\Cl)c1cc(Cl)c(Cl)cc1Cl | 36%
O=C(NC1CCCCCC1)C1CC(=O)N(Cc2ccccc2)C1 (stereo unspecified) | 14%
CCC(=O)Nc1c2c(nc3c1CCC3)CCCC2 | 1%
COc1ccccc1N(C(=O)NCc1ccccc1)C1=NCC(C)S1 (stereo unspecified) | 58%
O=c1[nH]c2cc3c(cc2cc1C(c1nnnn1C1CCCC1)N1CCSCC1)OCCO3 (stereo unspecified) | 43%
COc1ccc(N2CCn3c2nc2c3c(=O)n(CCCc3ccccc3)c(=O)n2C)cc1 | 12%
COc1nc(OC)nc(N2CCC(C(=O)NCC3CCCCC3)CC2)n1 | 32%
CCCc1cc(=O)oc2cc(OCC(=O)N(C)C)c(Cl)cc12 | 19%
CC1CCN(C(=O)CSc2nnc(-c3cc4ccccc4cc3O)n2Cc2ccco2)CC1 | 11%
O=C(O)c1cn(C2CC2)c2cc(N3CCNCC3)c(F)cc2c1=O | 2%[12.8 µM]
COc1ccc(-n2c(Cc3cccn3C)nnc2SCC(=O)Nc2ccc(C)cc2C)cc1 | 79%
COC(=O)C1=C(N)Oc2c(c(=O)oc3ccccc23)[C@]12C(=O)N(C)c1ccccc12 | 59%
CN(CCc1ccccn1)C(=O)CCNC(=O)Cn1cnc2ccccc2c1=O | 0%
Cc1cc2c(cc(C(=O)O)n2C)s1 | -3%
CCC(=O)NC(=Nc1nc2ccccc2s1)NC(=O)CC | 30%
Cn1c(C(=O)OCC(=O)NCc2cccs2)cc2sccc21 | -12%
CCCOP(=O)(c1ccc(N(C)C)cc1)C(O)c1cc(OC)c(OC)c(OC)c1 (stereo unspecified) | 37%

Single values from the list:
`CC1CCN(C(=O)CSc2nnc(-c3cc4ccccc4cc3O)n2Cc2ccco2)CC1` in AmpC inh no det: 11%
`COc1nc(OC)nc(N2CCC(C(=O)NCC3CCCCC3)CC2)n1` in AmpC inh no det: 32%

The list goes on.
SMILES | AmpC inh no det
CCCN(CCC)C(=O)Cc1c(-c2ccc(Cl)cc2)nc2c(Cl)cc(Cl)cn12 | -7%
Cc1cc(C(=O)CCC(=O)N2CCN(S(=O)(=O)c3cccs3)CC2)c(C)s1 | 39%
CCC(CC)C(=O)Nc1c2c(nn1-c1ccc(OC)cc1)CS(=O)C2 (stereo unspecified) | 2%
CC1C=CCC2C(=O)N(c3cccc(C(=O)N4CCCCCC4)c3)C(=O)C12 (stereo unspecified) | 64%
Cc1ccc(SC(C)C(=O)N2CCCC2)cc1 (stereo unspecified) | 1%
CCn1c(=O)cc(SCC(=O)NCCCN2CCN(c3ccc(F)cc3)CC2)c2ccccc21 | 122%
O=c1c(-c2cccc(Cl)c2)nc2cncnc2n1Cc1ccccc1Cl | 0%
CC(C)Oc1cc(O)c2c(=O)c(-c3ccc(O)cc3)coc2c1 | -14%
COCCNC(=O)NC(=O)COC(=O)C12CC3CC(CC(NC(C)=O)(C3)C1)C2 | 4%
Cc1c(NC(=O)C2CC=CCC2C(=O)O)c(=O)n(-c2ccccc2)n1C (stereo unspecified) | 1%
Cc1ccc(-n2c(SCc3cn4ccsc4n3)nc3ccccc3c2=O)cc1 | 23%
COc1cc(C2NC(=O)NC(C)=C2C(=O)OCC2CCCO2)ccc1O (stereo unspecified) | -9%
Cc1ccc(C(CC(=O)N2CCOCC2)c2ccco2)cc1 (stereo unspecified) | 61%
Cc1cc(NC(=O)COC(=O)CSc2nc3cc(Cl)ccc3n2Cc2ccccc2)no1 | ?
O=C(Nc1cccc(F)c1)C1CCN(C(=O)Cc2ccccc2)CC1 | 15%
COc1ccc(-c2nnc(SCC(=O)c3ccc(C)o3)o2)cc1 | 15%
C[C@]1(C(=O)NCC2CC2)C=C[C@@H](Cc2ccccc2)N1C(=O)c1ccccc1 | 66%
CCCC(c1nnnn1CCOC)N1CCN(C(=O)c2ccco2)CC1 (stereo unspecified) | -6%
Nc1nnc(SCc2ccc(F)cc2Cl)s1 | 65%
O=C1O/C(=C\C(=O)N2CCOCC2)c2ccccc21 | -4%
CC(C)N=C(NC#N)SCc1ccccc1F | -9%
O=C(c1cc(-c2cccc(O)c2)on1)N1CCCCC1 | 7%
CCCCCCCCCCCCCCCC(=O)NC[C@@H](COP(=O)([O-])OCC[N+](C)(C)C)OCC | 201%
CNc1oc(C)nc1S(=O)(=O)c1ccccc1 | -6%
COc1cc(-c2nnc3sc(Cc4ccccc4)nn23)cc(OC)c1OC | 120%
COc1ccc(N2C(=O)CC(NCc3cccs3)C2=O)cc1 (stereo unspecified) | 1%
CN(CCCNC(=O)c1cccc(N2CCCC2=O)c1)c1ccccc1 | 25%
Cc1csc(NC(=O)CCNS(=O)(=O)c2ccc3c(c2)c(=O)n(C)c(=O)n3C)n1 | -10%
CC(C)NC(=O)N1CCCC2(CCN(C(=O)c3csnn3)CC2)C1 | 4%
Cc1ccc(NCc2nnc(SCC(=O)N3CCc4ccccc43)n2C)cc1 | 85%
CC(C)CN1CCC2(CC1)CCN(C(=O)c1cccc(F)c1)CC2 | 12%
CCOc1ccc(NC2=NC(C(=O)NCc3ccccc3)CC(=O)N2)cc1 (stereo unspecified) | 22%
COCCNC(C)C(=O)C12CC3CC(CC(C3)C1)C2 (stereo unspecified) | 14%
O=C(O)c1ccc(S(=O)(=O)c2ccc3c(c2)C(=O)N(CC2CCCO2)C3=O)cc1 (stereo unspecified) | -13%
CCOc1cc2c3c(c1)C1(OCCO1)C(=O)N3C(C)(C)CC2C (stereo unspecified) | -4%
Cc1ccnc(NC(=O)CSc2cc(=O)n(C)c3ccccc23)c1 | 36%
COc1ccc(N2CC(C(=O)OCC(=O)c3cccc(OC)c3)CC2=O)cc1 (stereo unspecified) | 64%

Molecules listed so far with a Cl atom (16):
SMILES | AmpC inh no det
ClCc1ccccc1 | 0%
COc1cccc(C2N(c3cccc(Cl)c3)C(=O)C3CCCN32)c1 (stereo unspecified) | 56%
O=C(O)CCCCCNS(=O)(=O)c1ccc(Cl)cc1 | -7%
N#Cc1nc(COc2ccc(Cl)cc2)oc1NCc1ccc2c(c1)OCO2 | -15%
[O-][n+]1onc2c1CCc1c-2nn(-c2ccccc2Cl)[n+]1[O-] | 5%
CCOc1nc(S(=O)(=O)c2ccc(C)cc2)c(Cl)s1 | 4%
COc1cc(S(=O)(=O)NC2CCCCC2)ccc1Cl | -20%
CC(C)COC(=O)NCC12C=CC(O1)C1C(=O)N(c3ccc(Cl)cc3)C(=O)C12 (stereo unspecified) | 46%
CCC(=O)Nc1ccc(NC(=O)CN2CCCC(C)C2)c(Cl)c1 (stereo unspecified) | 9%
CCN1CC=C2C(C1)C(c1ccc(Cl)s1)C(C#N)=C(N)C2(C#N)C#N (stereo unspecified) | 17%
COP(=O)(OC)O/C(=C\Cl)c1cc(Cl)c(Cl)cc1Cl | 36%
CCCc1cc(=O)oc2cc(OCC(=O)N(C)C)c(Cl)cc12 | 19%
CCCN(CCC)C(=O)Cc1c(-c2ccc(Cl)cc2)nc2c(Cl)cc(Cl)cn12 | -7%
O=c1c(-c2cccc(Cl)c2)nc2cncnc2n1Cc1ccccc1Cl | 0%
Cc1cc(NC(=O)COC(=O)CSc2nc3cc(Cl)ccc3n2Cc2ccccc2)no1 | ?
Nc1nnc(SCc2ccc(F)cc2Cl)s1 | 65%
